HNF4A DNA FP: change in binding of human HNF4A to DNA, primary screen, biochemical, fluorescence polarization, FITC-DNA | activity change, % at 10 µM | 360,000 compounds, 0.3% hits | 1 h; in the data active = activity change above about 30%, passing the limit was not always enough;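 also: controls were the assay level and a saturating level of protein; the project sought stronger binding though the title names inhibitors; some compounds called inactive have numbers as strong as hits; positive values seem to mean higher polarization but the record does not say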
ALR H2O2 inh: inhibitors of human ALR sulfhydryl oxidase, primary screen, biochemical, H2O2 detection, HRP-luminol luminescence, single point | purified ALR, DTT oxidation | inhibition, % (no concentration beside the values) | FAD-linked sulfhydryl oxidase ALR (Homo sapiens), P55789 | 290,000 compounds, 3.8% hits;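 active = mean and each replicate at 75% or more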;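 also: stock transfer was 7.5 nL into about 7.5 µL; 0% = neutral wells and 100% = wells with inactivated enzyme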
Target sequence (P55789 whole entry, looked up): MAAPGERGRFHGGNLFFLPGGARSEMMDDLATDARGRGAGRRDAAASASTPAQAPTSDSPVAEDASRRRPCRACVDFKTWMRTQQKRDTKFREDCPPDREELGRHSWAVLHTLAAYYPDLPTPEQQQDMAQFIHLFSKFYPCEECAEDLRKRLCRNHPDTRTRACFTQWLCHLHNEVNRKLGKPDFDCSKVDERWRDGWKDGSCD
Ecoli growth: E. coli growth inhibition, primary screen, OD600; Escherichia coli growth, 23 h; active compounds read low; OD600 absorbance (no concentration beside the values); 330,000 compounds, 0.21% hits; AID 1053175, 2014;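 active = OD600 absorbance below the run mean of sample wells minus 3.6 SD, in any replicate, cut at about 0.56 in these data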;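 also: stock transfer was 300 nL into about 60 µL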
Ecoli rRNA inh: reduced GFP signal of wild-type E. coli, primary screen, bacterial rRNA inhibitor project, GFP/RFP fluorescence, OD600, single point | E. coli WT GFP vs humanized-ribosome RFP mutants, 24 h; active compounds read low; DMSO median 0, no signal -100 | GFP signal change (wild-type ribosome), % (test concentration not listed) | 350,000 compounds, 1.6% hits;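 active = significant combined selectivity score with lowered wild-type GFP, culture density cut under 30%, mutant RFP and density less affected; inactive = any of these conditions unmet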; also: one replicate is shown; some compounds called inactive have numbers as strong as hits
UCH37 inh: inhibitors of human UCH37 deubiquitinase, primary screen, biochemical, Ub-AMC cleavage, fluorescence | purified proteasome/UCH37 | 330,000 compounds, 0.33% hits | inhibition, % (test concentration not listed) | Ubiquitin carboxyl-terminal hydrolase isozyme L5 (Homo sapiens), Q9Y5K5;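 active = mean of two replicates above 20%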;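 also: 0% = compound-free wells with enzyme and 100% = wells lacking proteasome; stock transfer was 100 nL into about 20 µL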
Target sequence (Q9Y5K5 whole entry, looked up): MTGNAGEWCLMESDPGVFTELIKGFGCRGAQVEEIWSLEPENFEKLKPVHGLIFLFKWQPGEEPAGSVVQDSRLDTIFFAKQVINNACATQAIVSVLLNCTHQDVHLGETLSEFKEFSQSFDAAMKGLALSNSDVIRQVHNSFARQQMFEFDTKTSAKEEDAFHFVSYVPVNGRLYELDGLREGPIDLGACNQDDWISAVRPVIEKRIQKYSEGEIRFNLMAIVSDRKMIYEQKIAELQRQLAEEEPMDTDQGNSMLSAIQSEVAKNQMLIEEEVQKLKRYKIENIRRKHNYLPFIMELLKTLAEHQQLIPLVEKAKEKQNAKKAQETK
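Material: Human UCH37 enzyme supplied as purified proteasome complex | Schedule: 30 min preincubation with enzyme, 25 min cleavage at room temperature | Detection: AMC fluorescence 355/460 nm | Measure: % inhibition of Ub-AMC cleavage fluorescence | Controls: Wells without proteasome as full block, compound-free enzyme plus substrate as uninhibited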
FGF22 binding: binders of human FGF22 protein, primary screen, FGF22 synaptogenesis inhibitor project, biophysical, thermal shift, single point | Fibroblast growth factor 22 (Homo sapiens), Q9HCT0 | recombinant FGF22 thermal shift, SYPRO orange fluorescence; percent of sucrose octasulfate shift, DMSO zero | calls only at 9.99 µM | 340,000 compounds, 1.5% hits | AID 651658, 2012;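 active = melting point raised past a set limit in the mean and every replicate; three in four hits are not shown here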
Beta2AR agonist: beta2AR agonists driving receptor internalization, primary screen, cell-based, FAP fluorogen, flow cytometry | Beta-2 adrenergic receptor (Homo sapiens), P07550 | Am2.2-beta2AR cells; reference of the scale not given here | response, % (concentration not given with the values) | 340,000 compounds, 0.43% hits;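 active = response above a set limit, near 3 SD of response in nonfluorescent compounds, cut at about 42% in these data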;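 also: stock transfer was 100 nL into about 11 µL; a reference agonist was the positive control; negative values mostly stem from fluorescent compounds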
Target sequence (P07550 whole entry, looked up): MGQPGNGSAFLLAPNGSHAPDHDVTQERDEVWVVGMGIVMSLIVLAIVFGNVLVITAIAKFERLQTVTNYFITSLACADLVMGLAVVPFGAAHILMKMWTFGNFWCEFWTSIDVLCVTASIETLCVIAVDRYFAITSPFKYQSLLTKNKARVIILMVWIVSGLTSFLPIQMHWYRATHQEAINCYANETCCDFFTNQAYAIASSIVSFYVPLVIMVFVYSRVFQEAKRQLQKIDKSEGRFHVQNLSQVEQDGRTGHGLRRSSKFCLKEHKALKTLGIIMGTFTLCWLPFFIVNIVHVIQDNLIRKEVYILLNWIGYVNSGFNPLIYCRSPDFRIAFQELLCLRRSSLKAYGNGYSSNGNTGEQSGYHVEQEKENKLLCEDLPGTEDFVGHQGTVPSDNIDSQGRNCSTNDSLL
Ecoli rRNA inh OD600: also measured in Ecoli rRNA inh; calls as there; OD600 change, %; measured here: OD600 growth;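 optical density of the mix in the first replicate; 0 = DMSO median and -100 = no signal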
Ecoli rRNA inh RFP: further read-out of Ecoli rRNA inh, marked with its call; RFP signal change, %; measured here: RFP humanized mutant strains;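 first replicate; 0 = DMSO median and -100 = no signal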
Numbers without * were called inactive; i = inactive; / = not tested or not shown. A portion of the library (hit frequency here may not be typical).

mol,UCH37 inh,Ecoli growth,HNF4A DNA FP,Ecoli rRNA inh,FGF22 binding,ALR H2O2 inh,Beta2AR agonist,Ecoli rRNA inh RFP,Ecoli rRNA inh OD600
COc1ccc(-n2c(O)c(C(C)=NCCc3c[nH]c4ccccc34)c(=O)[nH]c2=O)cc1,0.7,0.61,3.1,15,i,1,1,5.7,13
O=C(NCc1ccc(C(=O)N2CCC3(CC2)OCCO3)cc1)c1ccc2c(c1)OCO2,4.6,0.74,-0.2,/,/,-10,-5,/,/
CCC(=NC1CC1)c1c(O)n(-c2ccc(OC)cc2)c(=O)[nH]c1=O,-1.7,0.72,-1.0,/,/,0,19,/,/
O=C(Nc1ccccc1)c1cc([N+](=O)[O-])ccc1N1CCNCC1,3.2,0.73,-0.8,13,i,-12,-4,-1.0,8
COc1ccccc1OCCCn1cc(C(=O)c2ccco2)c2ccccc21,4.9,0.69,1.1,/,/,/,-6,/,/
O=C(c1ccc(CS(=O)(=O)c2ccc(Br)cc2)o1)N1CCC2(CC1)OCCO2,0.3,0.62,3.1,/,/,0,2,/,/
CC(=O)NC1=C(N2CC2C)C(=O)C(NC(C)=O)=C(N2CC2C)C1=O (centres undefined),8.0,0.71,0.4,23,i,/,9,-0.4,12
O=C1C2C3CCC(O3)C2C(=O)N1c1cccc(F)c1 (centres undefined),3.6,0.67,2.2,-8,i,/,-4,-0.4,8
Cc1cc(OCC(=O)NC(Cc2ccc(Cl)cc2)C(=O)O)c2c3c(c(=O)oc2c1)CCCC3 (centres undefined),-51,0.69,-1.7,/,i,14,-23,/,/
COc1ccc(-n2nnnc2C(c2cccs2)N2CCC3(CC2)C(=O)NCN3c2ccccc2)cc1 (centres undefined),/,/,-2.1,4,i,/,/,10,-6
CN1C(=O)C(Cc2nc3ccccc3c(=O)n2-c2ccccc2)c2ccccc21 (centres undefined),-1.4,0.64,-2.0,/,/,15,1,/,/
Cc1ccc(CN2CCCN(Cc3ccc(C)cc3)S2(=O)=O)cc1,-1.6,0.68,-0.3,-8,i,-25,0,1.2,-9
CCOc1ccc(-n2c(O)c(N=Nc3c(C)n(C)n(-c4ccccc4)c3=O)c(=O)[nH]c2=O)cc1,17,0.7,4.4,1,i,35,-1,-2.7,-6
COC(=O)C1=C(c2ccc(OCc3ccccc3)cc2)C[C@@H]2CC[C@H]1N2C(=O)NC1CCN(Cc2ccccc2)CC1,0.2,/,-5.9,/,/,-2,24,/,/
CN1CCC2(CC1)NC(=O)C1=C(CN(C)CC1)N2,4.3,0.71,1.6,/,/,-1,15,/,/
COc1cc(C(=O)OC2C[C@H]3CC[C@@H](C2)N3)ccc1O (some centres undefined),1.2,0.65,-0.3,12,i,84*,-7,4.9,5
CCN(CC)C(=O)c1ccc(NC(=O)Cn2nc(C)c3ccccc3c2=O)cc1,0.3,0.62,2.0,/,/,-13,6,/,/
CC(C)(C)n1cccc1/C=C1\C(=O)NC(=O)N(c2ccccc2)C1=O,-0.1,/,-0.8,/,/,10,-5,/,/
COC(=O)C1=C(c2ccc(F)cc2F)C[C@@H]2CC[C@H]1N2C(=O)NC(C)C,6.2,0.74,-0.2,/,/,-3,-3,/,/
CSc1ccc(CNC2CN3CCC2CC3)cc1 (centres undefined),-1.5,0.68,0.5,5,i,/,9,-13,9
COc1cc(CN=Cc2c(O)n(C(C)(C)C)c(=O)[nH]c2=O)cc(OC)c1,4.2,0.64,0.8,-7,i,/,-5,0.5,-14
O=C(CN1CCOCC1)c1ccc2cc[nH]c2c1,-15,0.69,0.8,-4,i,37,1,-1.1,3
CCN(CC)S(=O)(=O)N1CCC(C(=O)N2CCC3(CC2)OCCO3)CC1,5.2,0.69,2.1,6,i,-2,2,-2.1,-12
CCOC(=O)[C@@]1(C#N)[C@@H]2C=CC(C(N)=O)=CN2[C@@H](C(N)=O)[C@@H]1c1cccc(Cl)c1,-2.5,0.7,-6.7,/,/,-19,20,/,/
Cc1ccc(C)c(NC2=NCCCS2)c1,0.5,0.68,3.2,/,/,-14,-3,/,/
COC(=O)C1=C(c2ccc(Cl)c(C(F)(F)F)c2)C[C@@H]2CC[C@H]1N2C(=O)NCc1ccco1,0.8,/,-5.2,-21,i,-7,-1,-2.1,-43
N#Cc1ncc(N=Cc2ccc(N(CCCl)CCCl)cc2)s1,6.2,0.69,18,/,i,/,10,/,/
CCCCOC(=O)COc1cc(C)cc2oc(=O)c3c(c12)CCC3,-9.5,0.72,3.8,/,/,-7,0,/,/
Cc1ccc(S(=O)(=O)N2CCCC(C(=O)N3CCC4(CC3)OCCO4)C2)cc1 (centres undefined),5.1,0.72,7.0,/,/,-7,2,/,/
CNC(=O)N(C)c1nnc(C(C)(C)C)s1,1.6,0.7,-2.8,/,/,-2,-4,/,/
N#CC1c2ccccc2-n2nncc2CN1S(=O)(=O)c1cc(Cl)cc(Cl)c1 (centres undefined),/,/,-3.3,/,i,/,-1,/,/
CC1CN(CC(=O)c2ccccc2Cl)CC(C)O1 (centres undefined),6.0,0.7,0.0,16,i,4,6,1.9,7
N#Cc1ccccc1Cn1cc(C(=O)c2ccco2)c2ccccc21,1.2,0.73,-0.6,/,/,-3,-13,/,/
CCC(CC)C1C(C#N)=C(N)Oc2c1c(=O)oc1ccccc21 (centres undefined),-2.2,0.77,-0.2,/,/,13,-18,/,/
CCOC(=O)C1(CCc2ccccc2)CCN(CC(O)CO)CC1 (centres undefined),3.9,0.69,7.3,9,i,/,-2,0.0,2
CC(O)(CS(=O)(=O)c1ccccc1)C(=O)Nc1cccc(C(F)(F)F)c1 (centres undefined),2.0,0.68,15,/,/,-1,-1,/,/
O=C1NC(=O)N(Cc2ccco2)C(=O)/C1=C/c1cccn1CCOc1ccccc1Cl,/,/,-9.3,-5,i,1,-1,8.4,-4
CC12CCCCC1=[N+]([O-])CN2O (centres undefined),2.4,0.66,-5.8,/,/,-1,-2,/,/
CCCCn1c(O)c(/C=N/N2CCCCC2c2cccnc2)c(=O)[nH]c1=S (centres undefined),3.5,0.71,5.5,13,/,-6,-3,38,17
COC(=O)C1=C(c2cccc(OCc3ccccc3)c2)C[C@@H]2CC[C@H]1N2C(=O)NCc1ccc([N+](=O)[O-])cc1,4.4,/,-6.4,11,i,-1,13,-6.5,2
COc1ccc(C(=O)NC(=S)N2C[C@H]3C[C@H](C2)c2cccc(=O)n2C3)cc1OC,4.0,0.69,-3.4,/,i,3,1,/,/
COC(=O)C(c1ccccc1)N1CCCCCC1 (centres undefined),4.5,0.82,-1.2,/,/,-49,6,/,/
CCC1(c2ccc(C)cc2)C(=O)NC(=S)NC1=O,/,/,2.6,-1,i,/,/,-3.3,-1
CCn1c(=O)cc(OCC(=O)N2CCN(Cc3ccc4c(c3)OCO4)CC2)c2ccccc21,-0.1,0.7,1.5,/,/,-13,-3,/,/
O=c1cccc2n1CC1CC2CN(S(=O)(=O)c2ccccc2)C1 (centres undefined),0.3,0.71,4.0,10,i,2,-4,0.6,-4
NC1CCCCC1N=Cc1c(O)n(Cc2ccc(F)cc2)c(=O)[nH]c1=O (centres undefined),-2.0,0.73,-1.1,2,/,-3,5,4.9,4
CC12CCC3C(CCCC4CC(=O)CCC43C)C1CCC2O (centres undefined),/,/,-0.9,-58,i,/,-12,-18,-76
CC12CC[C@H]3[C@@H](CCC4(O)C[C@H](O)CCC34/C=N/NC(=O)c3ccc(O)cc3)C1(O)CCC2C1=CC(=O)OC1 (some centres undefined),/,/,-3.0,7,i,5,-1,6.5,8
Clc1ccc(CN2CCNCC2)cc1,-2.3,0.65,-3.9,16,i,/,-1,-1.6,-12
COc1cc(C)cc(CN2CC=C(c3ccccc3)CC2)c1O,5.3,0.62,-3.2,-5,i,5,3,-3.4,-5
O=C(CN1CC=C(c2ccccc2)CC1)NC(=O)NCc1ccco1,3.7,0.66,1.4,/,/,-8,-10,/,/
O=C(c1cccc(C(F)(F)F)c1)C1CCCN(Cc2ccccc2O)C1 (centres undefined),/,/,4.3,8,i,5,8,-2.1,-4
C/C(=N\N1CCCCC1c1cccnc1)c1c(O)n(C2CCCCC2)c(=S)[nH]c1=O (centres undefined),5.3,/,61*,/,/,-6,-14,/,/
Brc1ccc(CN2CCNCC2)s1,3.7,0.71,2.6,/,/,-7,3,/,/
O=P(NCc1ccccc1)(Oc1ccccc1)Oc1ccccc1,4.1,0.71,3.0,-25,i,/,-3,-4.2,-42
COc1ccc(CNC(=O)/C=C/c2ccc3[nH]cc(CCN(C)C)c3c2)cc1,2.1,/,3.6,/,i,-7,1,/,/

(next part)
mol,UCH37 inh,Ecoli growth,HNF4A DNA FP,Ecoli rRNA inh,FGF22 binding,ALR H2O2 inh,Beta2AR agonist,Ecoli rRNA inh RFP,Ecoli rRNA inh OD600
C/C(=N\NC(=O)c1ccccc1Cl)c1c(O)n(C2CCCCC2)c(=O)[nH]c1=O,14,0.7,1.6,-32*,i,17,-4,-2.6*,-16*
COC(=O)Cn1cc(/C=C2\C(=O)NC(=O)N(c3ccccc3)C2=O)c2ccccc21,/,/,4.3,17,i,4,27,6.8,19
CCC(=Nc1ccc(OC)cc1OC)c1c(O)n(C2CCCCC2)c(=O)[nH]c1=O,2.7,0.72,-2.7,/,/,-7,-2,/,/
O=C1NC(=O)N(Cc2ccccc2)C(=O)/C1=C/c1cnc(-c2ccccc2)nc1,5.2,/,-9.9,23,i,14,3,-0.7,14
CC1(C)CC(n2[nH]c(=O)c3c2NC(=O)CSC3c2ccc(F)cc2)CCO1 (centres undefined),1.3,0.81,1.9,/,/,-2,2,/,/

Five compounds drawn at random from those above:
mol,UCH37 inh,Ecoli growth,HNF4A DNA FP,Ecoli rRNA inh,FGF22 binding,ALR H2O2 inh,Beta2AR agonist,Ecoli rRNA inh RFP,Ecoli rRNA inh OD600
CCC(CC)C1C(C#N)=C(N)Oc2c1c(=O)oc1ccccc21 (centres undefined),-2.2,0.77,-0.2,/,/,13,-18,/,/
COC(=O)C1=C(c2cccc(OCc3ccccc3)c2)C[C@@H]2CC[C@H]1N2C(=O)NCc1ccc([N+](=O)[O-])cc1,4.4,/,-6.4,11,i,-1,13,-6.5,2
CCCCn1c(O)c(/C=N/N2CCCCC2c2cccnc2)c(=O)[nH]c1=S (centres undefined),3.5,0.71,5.5,13,/,-6,-3,38,17
O=C1C2C3CCC(O3)C2C(=O)N1c1cccc(F)c1 (centres undefined),3.6,0.67,2.2,-8,i,/,-4,-0.4,8
Clc1ccc(CN2CCNCC2)cc1,-2.3,0.65,-3.9,16,i,/,-1,-1.6,-12

Screening data (PubChem)
